# eIF4H FP inh – inhibitors of RNA binding by human eIF4H; Q15056; eIF4H fluorescence polarization binding assay; inhibition, % at 35 µM; actives 0.94% (n = 290,000); AID 2012;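 active means 50% or more with normal probe brightness, or confirmed in later tests; inconclusive means above 50% with abnormal brightness, or retests that disagree; inactive means below 50% or failed in later tests; about a fifth of its hits are not listed in these tables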;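 further: calls also rest on retests at 20 µM and on dose response follow-up; 0% = protein and probe with vehicle and 100% = probe without protein; strong numbers were not always called active; many hits fall short of the cut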
# Rce1 inh – inhibitors of yeast Ras-converting enzyme | yeast membranes, quenched prenylated peptide cleavage fluorescence | actives 0.27% (n = 290,000) | calls only | Q03530;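 active means fall in fluorescence gain of 50% or more versus controls, with final raw signal at or below 3038400; inconclusive means same 50% fall but final raw signal above 3038400; inactive means fall in fluorescence gain under 50%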;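 further: plate controls were neutral control wells for no effect and wells lacking membranes for full effect; tested at 10 µM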
# Target sequence (Q03530 whole entry, looked up): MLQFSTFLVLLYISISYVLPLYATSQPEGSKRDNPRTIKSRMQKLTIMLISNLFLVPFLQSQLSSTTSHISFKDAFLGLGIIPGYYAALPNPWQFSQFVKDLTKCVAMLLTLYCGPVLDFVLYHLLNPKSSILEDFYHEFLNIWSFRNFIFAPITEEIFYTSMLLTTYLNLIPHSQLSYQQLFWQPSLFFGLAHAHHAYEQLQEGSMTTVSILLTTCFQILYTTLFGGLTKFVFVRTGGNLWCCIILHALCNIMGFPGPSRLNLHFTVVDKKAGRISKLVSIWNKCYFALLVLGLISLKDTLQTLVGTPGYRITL
# CSC inhib – cancer stem cell inhibition; actives 1.1% (n = 300,000); inhibition, % at 7.5 µM; cancer stem cell-like cells viability, luminescence;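 active means mean at 75% or more and at least half the replicates too; inconclusive means mean and replicates disagree; tested in HMLE shEcad cells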;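 further: 0% = median of negative and 100% = median of positive control wells; the first replicate is given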
# MT1-MMP act inh – inhibitors of human MT1-MMP activation; P50281; HT1080 RFP-PRO-GFP cells, GFP/RFP ratio fluorescence, overnight; percent of plate control window, DMSO zero; GFP/RFP ratio change, % at 20 µM; actives 0.061% (n = 360,000); AID 651647;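 active means GFP/RFP ratio change of at least 30% with cell ATP level not reduced by more than half and red fluorescence within 50% of control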; further: strong numbers were not always called active
#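 Assay system: RFP-PRO-GFP reporter HT1080 cells; read-out basis: GFP/RFP fluorescence ratio; benchmarks: DMSO wells and RFP-L50D-GFP cells; doses: 20 µM single dose, 1% DMSO; schedule: overnight cell settling, then overnight compound exposure, 37 °C, 5% CO2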
# HIV Env fusion – HIV envelope-mediated fusion inhibition; inhibition, % at 12.3 µM; HeLa-JRFL Env/CEM21 cell fusion, luciferase; actives 1.1% (n = 360,000);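 active means mean replicate inhibition score of at least 50 and every replicate individually at or above 50; inconclusive means only one of the two criteria met; inactive means mean below 50 and not all replicates reaching 50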;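 further: 0% = plate neutral controls and 100% = maraviroc near 300 nM; one replicate is shown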
# UUG fidelity – modulators of start codon recognition fidelity in yeast; actives 0.13% (n = 350,000); S. cerevisiae UUG-firefly luciferase reporter, luminescence/redox ratio; AID 602363; activity score, % at 18.7 µM;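 active means replicate mean at a twofold rise or more, about +100% in these data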;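 further: firefly luciferase made from a UUG start codon reports start codon fidelity; reporter light over untreated wells divided by growth signal over untreated wells; some hits fall short of that in this replicate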
# PABP FP inh – PABP-poly(A) binding inhibition. P11940. inhibition, % at 35 µM. actives 1% (n = 290,000). PABP-poly(A) RNA binding, fluorescence polarization;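 active means 50% or more with normal probe brightness, or confirmed in later tests; inconclusive means above 50% with abnormal brightness, or retests that disagree; inactive means below 50% or failed in later tests; about a fifth of its hits are not listed in these tables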;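 further: calls also rest on retests at 20 µM and on dose response follow-up; controls were probe without protein and protein plus probe with vehicle; some compounds called inactive have numbers as strong as hits; many hits fall short of the cut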
# Target sequence (P11940 whole entry, looked up): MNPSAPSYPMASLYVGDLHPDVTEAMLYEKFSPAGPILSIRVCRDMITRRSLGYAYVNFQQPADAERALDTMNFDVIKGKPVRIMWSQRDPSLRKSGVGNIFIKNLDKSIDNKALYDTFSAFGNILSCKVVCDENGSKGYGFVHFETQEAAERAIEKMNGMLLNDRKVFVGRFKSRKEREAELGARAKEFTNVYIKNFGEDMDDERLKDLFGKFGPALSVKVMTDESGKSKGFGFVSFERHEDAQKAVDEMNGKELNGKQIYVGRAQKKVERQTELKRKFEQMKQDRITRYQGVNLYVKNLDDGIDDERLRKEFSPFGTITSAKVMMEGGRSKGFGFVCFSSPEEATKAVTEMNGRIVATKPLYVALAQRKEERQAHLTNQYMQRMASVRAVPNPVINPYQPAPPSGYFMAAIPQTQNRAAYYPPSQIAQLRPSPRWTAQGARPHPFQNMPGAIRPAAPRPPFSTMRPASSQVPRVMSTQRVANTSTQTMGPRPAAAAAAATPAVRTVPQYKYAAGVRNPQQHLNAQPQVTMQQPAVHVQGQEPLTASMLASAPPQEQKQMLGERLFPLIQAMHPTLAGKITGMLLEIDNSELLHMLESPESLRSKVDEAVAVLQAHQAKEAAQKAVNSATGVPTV
# eIF4H FP inh retest – also measured in eIF4H FP inh; calls as there; inhibition, %; compound at 20 µM; confirmation average;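 mean of two retest wells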
# PABP FP inh retest – further read-out of PABP FP inh, marked with its call; inhibition, %; compound at 20 µM; confirmation repeats;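 mean of two retest wells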
# MT1-MMP act inh RFP – second read-out of MT1-MMP act inh, no call of its own (marks repeat the call); RFP signal change, %; measured here: RFP expression control read;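 0 = vehicle wells; hits needed this value within 50% of zero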
# The depositor's hits bear a star; i = inactive; ? = inconclusive; nt = no result given. These rows are one share of the data (hit frequency here may not be typical).
# Sample of the layout, ten compounds:
SMILES,eIF4H FP inh,Rce1 inh,CSC inhib,MT1-MMP act inh,MT1-MMP act inh RFP,HIV Env fusion,UUG fidelity,PABP FP inh,others
COc1ccccc1C(=O)NC(=O)COC(=O)Cc1ccccc1[N+](=O)[O-],nt,nt,-12,3,0,1,-6,nt,
Cn1cc(Cl)c(C(=O)OCC(=O)Nc2nc(-c3ccc(Br)cc3)cs2)n1,0,nt,14,1,-1,-135,-26,16,
CC(=O)c1sc(NC(=O)c2ccc(COc3ccccc3Cl)o2)nc1C,4,i,59,-1,1,2,-7,3,
Cc1cc(C)c(C)c(S(=O)(=O)N2CCN(C(=O)CNC(=O)c3ccco3)CC2)c1C,nt,nt,9,1,3,-2,-13,nt,
COc1ccc(OCC(=O)O/N=C(\N)Cc2ccc(Cl)cc2Cl)cc1,-2,i,2,0,1,nt,-1,7,
CC(C)(C)C(=O)N1CCn2c1nc1ccccc12,-6,i,-14,3,2,9,-23,-14,
O=C(CCN1C(=O)c2ccccc2C1=O)Nc1cccc(S(=O)(=O)NC2=NCCC2)c1,-6,i,-7,1,4,-4,nt,-5,
CCc1ccc(C(C(=O)NCc2ccc(OC)cc2)N(CCOC)C(=O)Cc2cccs2)cc1 (stereo unspecified),-15,i,-41,-6,-10,nt,-4,-6,
Cc1ccccc1-c1cccc([C@@H]2C[C@H]3[C@H](CON3C)CN2Cc2ccccc2)c1,nt,nt,nt,-3,-7,35,-25,nt,
Fc1ccc(CNc2ccccn2)cc1,-16,i,-10,1,2,2,-13,11,

# The list itself, from the start:
SMILES,eIF4H FP inh,Rce1 inh,CSC inhib,MT1-MMP act inh,MT1-MMP act inh RFP,HIV Env fusion,UUG fidelity,PABP FP inh,others
COc1ccccc1C(=O)NC(=O)COC(=O)Cc1ccccc1[N+](=O)[O-],nt,nt,-12,3,0,1,-6,nt,
Cn1cc(Cl)c(C(=O)OCC(=O)Nc2nc(-c3ccc(Br)cc3)cs2)n1,0,nt,14,1,-1,-135,-26,16,
CC(=O)c1sc(NC(=O)c2ccc(COc3ccccc3Cl)o2)nc1C,4,i,59,-1,1,2,-7,3,
Cc1cc(C)c(C)c(S(=O)(=O)N2CCN(C(=O)CNC(=O)c3ccco3)CC2)c1C,nt,nt,9,1,3,-2,-13,nt,
COc1ccc(OCC(=O)O/N=C(\N)Cc2ccc(Cl)cc2Cl)cc1,-2,i,2,0,1,nt,-1,7,
CC(C)(C)C(=O)N1CCn2c1nc1ccccc12,-6,i,-14,3,2,9,-23,-14,
O=C(CCN1C(=O)c2ccccc2C1=O)Nc1cccc(S(=O)(=O)NC2=NCCC2)c1,-6,i,-7,1,4,-4,nt,-5,
CCc1ccc(C(C(=O)NCc2ccc(OC)cc2)N(CCOC)C(=O)Cc2cccs2)cc1 (stereo unspecified),-15,i,-41,-6,-10,nt,-4,-6,
Cc1ccccc1-c1cccc([C@@H]2C[C@H]3[C@H](CON3C)CN2Cc2ccccc2)c1,nt,nt,nt,-3,-7,35,-25,nt,
Fc1ccc(CNc2ccccn2)cc1,-16,i,-10,1,2,2,-13,11,
O=C1OCCN1C(=O)[C@H]1[C@H](c2ccccc2)C(c2ccc(F)cc2)=NN1c1ccccc1,nt,nt,nt,-5,0,14,-1,nt,
CC1CCCCC1NC(=O)CSc1nnc(-c2ccco2)n1N (stereo unspecified),nt,nt,nt,2,2,25,-13,nt,
Cc1cc(C)nc(N2CCC(C(=O)Nc3ccc4c(c3)CCC4)CC2)n1,-4,i,-6,-1,-1,-9,nt,-7,
COc1cccc(CN2CCC(N(CCc3ccccc3)Cc3ccccc3)CC2)c1OC,3,i,77*,-3,-2,3,-20,7,
COc1ccc(C(=O)NN=C2CCCC2)cc1OC,0,i,0,-2,1,-9,-8,-1,
C=CCn1c(SCC(=O)Nc2ccc(F)cc2F)nnc1-c1cnccn1,-9,i,-12,-3,-1,-14,-11,5,
CCOC(=O)CN1CCC(c2ccccc2)CC1,4,i,-9,-1,-1,25,-19,3,
COCCNC(=O)C(c1ccc(OC)cc1)N(Cc1ccco1)C(=O)CCC(=O)Nc1ccccn1 (stereo unspecified),12,i,-21,-2,2,7,3,5,
Cc1cc(NC(=O)Nc2cccc(C(F)(F)F)c2)n(C)n1,0,i,-16,4,5,1,nt,-9,
COc1ccc(NC(=O)N2CCCC2C(=O)Nc2ccc(C)c(Cl)c2)cc1 (stereo unspecified),-3,i,-7,0,2,9,-11,10,
O=C(Nc1ccccc1)C1Cc2c(-c3cccc(F)c3)ccnc2O1 (stereo unspecified),nt,nt,nt,2,-7,-3,-2,nt,
CCCCN1C(=O)C(NC(=O)CC(C)C)(C(F)(F)F)C2=C1CC(C)(C)CC2=O (stereo unspecified),-6,i,-1,-2,-2,-17,-7,-12,
Cc1ccc(NC(=O)CNC(=O)Cn2cnc3sc(C)c(C)c3c2=O)cc1F,0,i,-4,3,1,8,-8,3,
O=C(NCc1ccccc1)c1cccnc1N1CCOCC1,-14,i,16,4,9,nt,nt,1,
O=C(N/N=C/c1cccc2nccnc12)c1ccccc1O,4,i,2,8,3,-2,nt,4,
O=C(NCCN1CCOCC1)c1cc2ccccc2o1,3,i,-16,-4,-7,-40,-48,4,
COc1cccc(NC(=O)c2ccc(N3C(=O)C4CC=CCC4C3=O)cc2)c1 (stereo unspecified),nt,i,5,-6,-5,3,-15,nt,
Cc1ccc(NS(=O)(=O)c2ccc(-c3cnc(C4CC4)o3)cc2)c(C)c1,10,i,?,-1,-12,-318,-5,0,
Cc1cccc(Nc2nnc(SCC(=O)NCC3CCCO3)s2)c1C (stereo unspecified),nt,nt,-12,6,-2,-10,-16,nt,
COC(=O)c1ccc(NC(=S)Nc2ccc(O)cc2)cc1,-2,i,-2,15,10,-8,nt,8,
C[C@@H](C(=O)Nc1ccc2ccccc2c1)[C@@H]1C[C@@]1(C)[C@@H](NC(=O)OCc1ccccc1)c1ccccc1,3,i,-8,1,-4,nt,-12,7,
S=C1NCCOCCOCCNC(=S)N2CCOCCOCCN1CCOCCOCC2,7,i,-2,-3,-1,8,nt,6,
Cc1cc(OCC(=O)NCCCN2CCOCC2)cc(C)c1Cl,nt,i,nt,2,-1,-25,-16,nt,
COc1ccccc1-n1c(SCC(=O)N2CCOCC2)nc2cccnc21,1,i,-24,1,6,2,-17,-2,
CSc1nccc(-c2sc(SC)c(C#N)c2-c2ccccc2)n1,-11,i,0,2,-6,18,nt,9,
CCCN1C(=O)/C(=C/c2ccc(N3CCOCC3)cc2)NC1=S,?,i,17,-9,-4,4,nt,2,
CCCn1c(C2CCCN2c2nc(-c3cccc(Br)c3)cs2)nc2ccccc21 (stereo unspecified),0,i,-5,-2,-4,20,-9,-9,
COc1ccccc1NC(=O)CSc1nnc2ccc(-c3ccccn3)nn12,nt,i,nt,2,6,-14,-13,nt,
Cc1cnc([N+](=O)[O-])n1CCOC(=O)NC(=O)c1c(F)cccc1F,-1,i,-8,0,1,8,nt,-6,
CCOC(=O)Cc1c(C)nc2c(-c3ccc(Cl)cc3)cnn2c1C,-2,i,47,-5,-7,-6,-13,-9,
CC(/C=N/n1cnnc1)=C\c1ccccc1,1,i,-17,6,3,-37,nt,6,
O=C(CN1CCSC1=NCc1ccccc1)c1ccccc1,-15,i,nt,1,3,nt,nt,-6,
c1ccc2c(c1)c1cccc3ccc4cccc2c4c31,nt,nt,-9,-3,7,nt,-2,nt,
O=S(=O)(c1ccc2ccccc2c1)N1C=CC(C(F)(F)F)=NCC1,11,i,5,0,0,nt,-1,20,
COc1ccccc1C(=O)Oc1cc(C)[nH]c(=O)c1[N+](=O)[O-],4,i,-1,2,2,-9,nt,2,
CC(=O)Nc1c(O)nc(SC/C=C/CSc2nc(O)c(NC(C)=O)c(=O)[nH]2)[nH]c1=O,-3,i,3,0,0,-7,nt,6,
Cc1ccc(-c2n[nH]c(Cc3ccccc3)n2)cc1,nt,i,-11,6,0,-22,-7,nt,
Cc1cccc(C(=O)N[C@@H](C)C(=O)N2CCN(c3ncccn3)CC2)c1,nt,nt,nt,2,0,-21,4,nt,
COc1cc2c(cc1CNC[C@H]1O[C@@H](n3cnc(C(N)=O)n3)[C@H](O)[C@@H]1O)OCO2,nt,nt,nt,4,6,-1,-17,nt,
O=C(C[C@H]1C[C@H](C(=O)N2CCCCC2)[C@@]2(CCc3ccccc3)c3[nH]c4ccc(Cl)cc4c3CCN2C1=O)NCc1ccco1,nt,nt,nt,-17,-27,18,-14,nt,
O=C(c1cc(S(=O)(=O)N2CCC3(CC2)OCCO3)ccc1F)N1CCCCC1,-2,i,13,1,1,1,nt,-4,
COc1ccc(OCC(=O)Nc2ccc3c(c2)nc(CCN2CCN(C)CC2)n3C)cc1,-2,i,3,-2,-2,6,-19,9,
Cc1cc2cc(CNC(=S)NC3CCCCC3)ccc2[nH]1,-4,i,-4,4,-2,7,nt,-1,
O=C(O)CC1(CC(=O)NCc2ccc(F)cc2)CCCCC1,-2,i,nt,1,5,19,-11,-3,
O=C1CC2(CCCCCC2)Oc2ccccc21,nt,i,-12,1,7,3,-11,nt,
CCCn1c(Sc2nc3c(c(=O)[nH]c(=O)n3C)n2CCC)nc2c1c(=O)[nH]c(=O)n2C,-6,i,-15,-1,-1,-18,2,-9,
C#CCOCCOCCOCCNc1nc(N2CCN(C(=O)CCCCCCCCCCNC(=O)[C@H](CCCCN)n3cc(CCO)nn3)CC2)nc(N2CCN(C(=O)CCCCCCCCCCNC(=O)[C@H](CCCCN)n3cc(CCO)nn3)CC2)n1,nt,nt,7,8,4,nt,-3,nt,
COc1ccc(N(CC(=O)Nc2ccc3c(c2)OCCO3)S(C)(=O)=O)c(OC)c1,-7,i,7,4,7,-10,-24,5,
CN(C)c1ccc(/C=N/NC(=O)c2ccccc2Cl)cc1,-6,i,27,-4,-10,-15,-4,2,
COc1ccccc1CCNC(=O)CNC(=O)Cc1cccc2ccccc12,-6,i,2,0,2,8,8,-3,
# (listing goes on)
SMILES,eIF4H FP inh,Rce1 inh,CSC inhib,MT1-MMP act inh,MT1-MMP act inh RFP,HIV Env fusion,UUG fidelity,PABP FP inh,others
O=C1/C(=C/c2ccc(F)cc2)SC(=S)N1NS(=O)(=O)c1ccccc1,3,i,-9,-1,6,-8,-12,14,
CCCS(=O)(=O)N1CCC(C(=O)NCCc2ccc(OC)c(OC)c2)CC1,-14,i,nt,1,1,nt,nt,-6,
COCCNC(=O)C1(C)CCCN(CCS(=O)(=O)c2ccc(C)cc2)C1 (stereo unspecified),nt,nt,nt,4,6,-70,-10,nt,
CCOc1ccc(C(=O)Nc2nnc(C(C)C)s2)cc1OCC,12,i,10,1,6,-68,-3,-6,
COc1ccc(C(=O)NC(=S)N2CCC(C)CC2)cc1,-4,i,-5,1,0,nt,-23,-4,
O=C(Nc1ccc(F)cc1F)c1noc2c1CCC2,85*,i,11,0,4,nt,-18,45*,eIF4H FP inh retest=92*;PABP FP inh retest=80*
CC1CCN(C(=O)COC(=O)c2cccc(S(=O)(=O)N(C)c3ccccc3)c2)CC1,nt,nt,nt,6,-8,12,-14,nt,
Fc1cnc(N2CCN(c3ccccc3)CC2)nc1N1CCN(c2ccccc2)CC1,-2,i,-1,-8,-21,0,nt,-1,

# Screening data deposited in PubChem BioAssay by several laboratories.
